Source: PubChem
Sfp PPTase inh – blocks B. subtilis Sfp PPTase activity | Q9F4F7 | Biochemical Sfp PPTase activity, qHTS | Potency, µM, inactives show max response, negative = inhibition, usual class: inhibitors | actives 3.5% (n = 310,000); active = well fitted inhibition curve with a large enough effect; inconclusive = small, poorly fitted or top-dose-only effect, or another doubt; inactive = no such curve, though single readings can be large or run the other way;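 note: the enzyme is Sfp with the accession as filed and its product quenches rhodamine fluorescence; potency is the fitted concentration of half-maximal effect; 0% = enzyme reaction without inhibitor and -100% = no enzyme wells; top concentration of the series not given in the record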
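Reaction rates are the 30-min fluorescence difference (ex 525, em 598 nm) in wells containing 15 nM Sfp, 5 uM rhodamine-CoA and 12.5 uM BHQ-2-YbbR at pH 7.6 with 10 mM MgCl2.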
D2 PAM – human D2 receptor positive allosteric modulation; P14416; DiscoveRx D2 beta-arrestin cells, luminescence, 90 min; 100% = 57 uM dopamine signal; potentiation, % (concentration not given with the values); actives 0.23% (n = 360,000); active = potentiation of 50% or more; inconclusive = 30% to 50%; inactive = 30% or less;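 note: compound concentration not given in the record; tested on top of an EC20 dose of dopamine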
Target sequence (P14416 whole entry, looked up): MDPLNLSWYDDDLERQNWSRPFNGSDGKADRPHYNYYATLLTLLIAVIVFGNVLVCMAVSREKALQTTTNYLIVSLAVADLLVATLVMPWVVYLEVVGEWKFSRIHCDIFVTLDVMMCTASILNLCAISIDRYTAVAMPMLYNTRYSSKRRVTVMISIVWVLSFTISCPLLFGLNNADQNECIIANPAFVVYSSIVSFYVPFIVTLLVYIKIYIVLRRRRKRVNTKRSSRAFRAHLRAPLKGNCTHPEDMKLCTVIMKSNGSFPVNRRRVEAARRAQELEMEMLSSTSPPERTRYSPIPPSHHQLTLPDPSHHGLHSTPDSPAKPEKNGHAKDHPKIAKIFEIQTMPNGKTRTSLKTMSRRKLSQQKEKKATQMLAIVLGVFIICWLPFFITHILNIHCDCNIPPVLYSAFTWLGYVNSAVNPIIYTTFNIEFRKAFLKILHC
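PathHunter beta-arrestin assay in DiscoveRx D2 cells. Compounds were added with an EC20 of dopamine (50 nM final) for 90 min at 37 deg C. Luminescence was read 1 h after detection reagent, with 57 uM dopamine as the EC100 control.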
gsp antag – antagonizes gsp, the McCune-Albright syndrome mutation; Potency, µM (titrated, usually from 76.9 µM), for inactives: at the highest dose activity change, negative = inhibition, actives largely listed as inhibitors; actives 0.4% (n = 340,000); gsp-mutant cells, cAMP HTRF, 30 min; control for the full effect not named in the record; active = falling curve of any shape with a large fitted effect; inconclusive = falling curve, mostly with a smaller effect; inactive = flat or rising curve; cell line not stated here;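 note: intracellular cAMP measured with PDE inhibitor Ro 20-1724 present during compound exposure; potency is the fitted concentration of half-maximal effect; % is set by controls: 0 for no effect and ±100 for the full control effect; nearly all actives have a fitted effect of over 65% in size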
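HTRF cAMP measurement after 30 min RT detection following 30 min, 37C compound treatment alongside […] (added as 300 uM solution) in G418-selected cells seeded at 2000/well and grown 16–24 h.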
Menin-MLL FL inh – inhibitors of human menin-MLL interaction, wild-type MLL peptide; 290,000 tested, under 10 active; Fluorescence polarization, fluorescein-MLL peptide displacement from menin; AID 1766; FP activity change, % at 61.4 µM; inconclusive = falling polarisation curve, or a change in total fluorescence; inactive = total fluorescence flat and polarisation flat or rising; no compound was filed as active; the % refers to the polarisation; negative = inhibition;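 note: % of control where 0% means no effect; inhibitors lower the polarisation; unlabelled MLL peptide was the positive control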
TRPV1 PAM – enhances activation of the human vanilloid receptor TRPV1. actives 0.02% (n = 320,000). AID 540277. Q8NER1. potentiation, % at 8.33 µM. TRPV1-expressing cells, Fluo-8 calcium influx, capsaicin EC20 potentiation; host cell line not named in the record; control for the full effect not named in the record; active means potentiation above 80%; inconclusive means 30% to 80%; inactive means below 30%; note: 0% is about no effect
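Fluo-8 calcium influx in TRPV1-expressing cells, kinetic read (ex 480/em 520 nm). Compound added and read 3 min for agonist activity, followed by capsaicin at EC20 final and 2 min further read for enhancement.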
ClpP mod – qHTS Assay for Activators of ClpP | ATP-dependent Clp protease proteolytic subunit (Bacillus subtilis (strain 168)), P80244 | actives 1.9% (n = 340,000) | purified B. subtilis ClpP, FRET peptide cleavage, 20 min | Potency, µM (top dose mostly 57.5 µM), for the others: at the top dose activity change, negative = active; active = well fitted falling curve with a large enough effect; inconclusive = small, poorly fitted or top-dose-only effect; inactive = no such curve, though single readings can be large or run the other way; note: potency is the fitted concentration of half-maximal effect; the source files actives as falling curves though it sought activators and does not explain the sign; nearly all actives have a fitted effect of over 65% in size; many hits overshoot -100%
Target sequence (P80244 whole entry, looked up): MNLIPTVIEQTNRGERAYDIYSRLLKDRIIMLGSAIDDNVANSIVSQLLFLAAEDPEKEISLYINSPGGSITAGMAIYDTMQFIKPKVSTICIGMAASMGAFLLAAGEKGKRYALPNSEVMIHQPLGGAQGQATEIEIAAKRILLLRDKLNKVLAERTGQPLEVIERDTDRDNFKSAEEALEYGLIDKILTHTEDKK
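Purified B. subtilis ClpP, 10 microg/mL final in Tris/HCl pH8 with KCl, BSA, glycerol and Tween-20, cleaved an Abz/nitrotyrosine-quenched decapeptide. Fluorescence (ex 320, em 430) was read at 0 and 20 min at room temperature. Delta was normalized to 5.8 microM ADEP and DMSO/no-enzyme controls.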
gsp agonist – activates gsp, the McCune-Albright syndrome mutation | gsp mutant cells, cAMP HTRF, 30 min; control for the full effect not named in the record | Potency, µM (titrated, usually from 76.9 µM), without a hit: top-dose activation (cAMP increase), actives largely listed as activators | actives 0.13% (n = 340,000); active = well fitted activation curve with a large enough effect; inconclusive = small, poorly fitted or top-dose-only effect, or another doubt; inactive = no such curve, though single readings can be large or run the other way; cell line not stated here;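 note: phosphodiesterase inhibitor Ro 20-1724 added with compounds to block cAMP breakdown; potency is the fitted concentration of half-maximal effect; nearly all actives have a fitted effect of over 60% in size; about a fifth of the inactives were tested at one dose only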
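Cells stably selected in G418 were plated at 2000/well, grown 16-24 hr, then given compounds in DMSO with the PDE inhibitor […] (300 uM solution added) for 30 min at 37C; cAMP was read by HTRF.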
* marks the source's active call; other numbers are inactive results; ? = inconclusive; . = no result given; & = joins results of further samples; [ ] = remark or other dose.

item	smiles	Sfp PPTase inh	D2 PAM	gsp antag	Menin-MLL FL inh	TRPV1 PAM	ClpP mod	gsp agonist
1	COc1cccc(CCc2nnc(CCC(=O)NCCc3cccc(C)n3)o2)c1	19%	-3	0%	-8.0	-2	.	19%[15.4 µM]
2	CN(C)C(C(=O)NC1CCCCC1)c1ccc(Cl)cc1 (stereo not given)	2%	-3	4%	-6.6	0	-2.2%	-29%
3	N#Cc1c(-c2ccccc2Cl)cc(-c2ccccc2)nc1Br	5%	-13	-3%	.	-6	?	28%
4	O=C(NCC1CCCN1S(=O)(=O)c1cccs1)C(=O)Nc1ccc(F)cc1 (stereo not given)	.	10	8%	.	2	1.5%	-42%[inhibitor]
5	Cc1cccc(C(=O)NCC(=O)N2CCN(S(=O)(=O)c3cc(C)ccc3C)CC2)c1	.	-9	-5%	.	7	0.6%	-47%[inhibitor]
6	O=c1cnn(-c2ccccc2)c(-c2ccccc2)c1	-5%	-2	0%	0.5	-19	-1.5%	-9%
7	O=C(NCCC1=CCCCC1)C1CCN(C(=O)c2ccc(Br)cc2)CC1	12%	-17	1%	-2.3	11	-1.9%	-14%
8	CN(C)C(/C=C/Nc1cccc([N+](=O)[O-])c1)=C(C#N)C#N	-2%	-4	-4%	-1.9	6	.	20%[15.4 µM]
9	CS(=O)c1ccccc1-c1nc(-c2cc(C(F)(F)F)cc(C(F)(F)F)c2)no1 (stereo not given)	5%	1	11%	?	-1	0.9%	-3%
10	CS(=O)(=O)N1CCN(C(=O)c2ccc(Br)s2)CC1	-4%	7	0%	-0.1	-3	0.3%	9%
11	Cc1ccccc1NC(=O)c1c([N+](=O)[O-])cnn1C	17%	-2	8%	0.7	-13	-0.3%	21%
12	COc1ccc(N2CCN(C(=O)C3CC(=O)N(c4ccc(C)cc4)C3)CC2)cc1 (stereo not given)	10%	-1	-16%	1.0	-9	.	-31%[inhibitor]
13	CN(C)c1ccc(/C=C2\N=C(c3ccc(Cl)c([N+](=O)[O-])c3)NC2=O)cc1	-3%	-4	0%	?	0	.	-27%[15.4 µM]
14	O=C(CN1CCCCC1)N/N=C/c1cccc(Cl)c1	15%	-12	13%	-0.8	4	.	3%
15	COc1cc2c(cc1OC)C(C)N(CCc1ccc(Cl)cc1)CC2 (stereo not given)	.	-18	-5%	.	.	.	-7%[15.4 µM]
16	COc1ccc2nc3ccccc3[n+]([O-])c2c1	.	-12	-18%	.	.	0.9%	-8%[15.4 µM]
17	O=C(Cc1ccccc1)Nc1c[nH]c(=O)[nH]c1=O	15%	-4	7%	4.2	?	1.0%	-31%[inhibitor]
18	CCOC(=O)N1CCN(C(=S)NC(=O)/C=C/c2ccc(C)cc2)CC1	4%	1	-26%	.	-11	-0.9%	11%
19	CCc1nnc(NS(=O)(=O)c2ccc(N=Cc3c(C)[nH]n(-c4ccc(Cl)cc4)c3=O)cc2)s1	11%	-7	?	0.6	2	1.7%	-14%
20	O=C(COC(=O)c1cc(Cl)ccc1[N+](=O)[O-])NCc1ccc(Cl)cc1Cl	?	0	?	3.3	-5	-1.3%	-7%
21	Cc1cc(N/N=C/c2ccccc2O)c2ccccc2n1	-13%	0	-6%	-24	-9	0.7%	-8%
22	O=C(NNC(=O)c1cccs1)c1ccccn1	.	-16	.	.	.	2.0%	-15%
23	O=S(=O)(NCC1CCCO1)c1ccc(S(=O)(=O)N(Cc2ccccn2)C2CC2)cc1 (stereo not given)	12%	-7	6%	1.4	25	-1.9%	-4%
24	CCOc1ccc(S(=O)(=O)NC2CC2)cc1	17%	-23	8%	-0.2	-13	0.3%	14%[15.4 µM]
25	O=C(CN1C(=O)CSc2ccc(S(=O)(=O)N3CCOCC3)cc21)NCCCN1CCCCC1	9%	-20	5%	-0.9	-2	-0.9%&1.4%	11%
26	Cn1c(C(=O)O)c(CC(=O)NCc2cccnc2)c2ccccc21	5%	-5	4%	-0.8	1	-8.8%	20%
27	C[C@H](CO)NC(=O)c1nc[nH]c1C(=O)N[C@@H](C)c1ccccc1	.	0	.	.	.	-2.8%	1%
28	COc1ccc(OC)c(NC(=O)c2cc3sccc3n2C)c1	-25%	-1	-25%	2.4	3	-17%	2%
29	CC(C)Sc1nsc2nc(=O)c(/C=C3\C=Nc4ccccc43)c(N)n12	10%	-8	-30%	7.9	6	1.1%	35%
30	CCOc1cccc(-c2c(C(=O)N/N=C/c3ccco3)nnn2-c2nonc2N)c1	7%	1	-9%	.	-2	-0.5%	12%
31	NC(=S)NN=C1CCCC(C(F)(F)F)C1 (stereo not given)	.	-6	12%	.	.	1.3%	?
32	COc1ccc(NC(=O)CSC2=C(C#N)C(c3ccco3)C3=C(CCCC3=O)N2)c(OC)c1 (stereo not given)	?	-1	-6%	2.2	7	1.7%	12%
33	Cc1ccc(S(=O)(=O)N2CCCCC2)cc1C(=O)Nc1ncn[nH]1	6%	.	.	0.1	12	.	.
34	CCCCC1S/C(=N/N=C/c2cccs2)NC1=O (stereo not given)	-3%	-19	-6%	.	5	0.7%	-23%
35	Cc1csc(N(C(=O)c2cccc(S(=O)(=O)N3CCCC3)c2)c2ccccc2)n1	10%	5	-13%	1.1	19	0.7%	-43%[inhibitor]
36	COC(=O)c1ccc(CNC(=O)CNC(=O)c2sc3ccccc3c2Cl)cc1	.	-2	6%	.	-22	.	-29%[15.4 µM]
37	Cc1ccc(NC(=O)CCNS(=O)(=O)c2ccc3c(c2)oc(=O)n3C)cc1C	22%	-5	-9%	8.5	2	0.7%	-59%[inhibitor]
38	COc1ccc(C(=O)COc2ccccc2C(N)=O)cc1	2%	2	-7%	-2.6	2	.	5%[15.4 µM]
39	Cc1ccc(S(=O)(=O)CC(=O)NC(C)c2ccccc2)cc1 (stereo not given)	13%	-14	13%	.	-1	-0.8%	24%
40	C[C@H](NC(=O)c1ccco1)C(=O)NNC(=O)COc1cccc(C(F)(F)F)c1	.	-7	8%	.	.	2.2%	-26%
41	CCOC(=O)Cc1nn(C(C)C)c(=O)c2ccccc12	5%	1	-10%	3.7	12	0.0%	-1%[15.4 µM]
42	O=C(OCc1cn([C@H]2C[C@H](c3ccccc3)N(C(=O)c3cccs3)C[C@@H]2O)nn1)c1ccccc1	.	-3	.	.	.	0.4%	?
43	COC(=O)c1cn(NC(=O)c2cnccn2)c(=O)c2ccccc12	9%	1	7%	-3.4	-7	1.4%	14%
44	CCOC(=O)CC(=O)COc1nc2cc3c(nc2o1)CCCC3	-6%	1	-6%	2.0	11	0.0%	5%[15.4 µM]
45	CCOC(=O)c1cnc2cc(-c3ccc(Br)cc3)nn2c1C	27%	0	10%	?	5	-4.0%	-5%
46	COc1cccc(/C=N/NC(=O)c2cccc([N+](=O)[O-])c2)c1OS(=O)(=O)c1ccc(C)cc1	14%	-3	-3%	-1.3	29	1.1%	?
47	CCCCNC(=O)/C(=C/c1ccccc1)NC(C)=O	-2%	-7	9%	9.7	4	-2.0%	-2%[15.4 µM]
48	O=C(C1=C[C@@H]2[C@H]3C(=O)N(c4ccccc4Cl)C(=O)[C@H]3[C@@H](C(=O)c3ccc(Cl)cc3)N2C=C1)c1ccccc1	-6%	.	.	?	-2	.	.
49	O=c1[nH]c2cc3c(cc2cc1CN(Cc1cccnc1)C(=S)NCc1ccco1)OCCO3	5µM*	0	-17%	19	-25	.	-25%
50	NS(=O)(=O)c1ccc(CNS(=O)(=O)Cc2ccc(Cl)cc2)cc1	19%	0	-1%	-4.8	-14	0.1%	1%
51	CCc1ccc2nc(SCC(=O)N3CC(=O)Nc4ccccc43)c(C#N)cc2c1	-8%	-4	-9%	0.3	?	-0.4%	-10%
52	O=C(NCc1ccc(Cl)cc1)C(=O)Nc1nccs1	-9%	-5	7%	-2.8	-9	.	13%[15.4 µM]
53	Fc1cccc(Cl)c1CSc1nnc(CNc2ccccc2)o1	-12%	-8	1%	2.7	12	-0.6%	5%
54	CCc1cc(=O)oc2cc(C)cc(OC(C)C(=O)NCCCn3ccnc3)c12 (stereo not given)	30%[activator]	-3	17%	2.3	14	3.1%	?
55	O=C(COC(=O)c1n[nH]c2ccccc12)Nc1cccc(S(=O)(=O)N2CCOCC2)c1	15%	-1	?	2.3	13	.	-6%[15.4 µM]
56	Cc1cccnc1CN1CCN(C(=O)c2cc(COc3ccc4ncccc4c3)on2)CC1	16%	-2	32µM*	-0.9	-3	.	0%[15.4 µM]

Later entries.
item	smiles	Sfp PPTase inh	D2 PAM	gsp antag	Menin-MLL FL inh	TRPV1 PAM	ClpP mod	gsp agonist
57	Cc1ccc(NC(=O)CSc2nnc(N)s2)cc1S(=O)(=O)N1CCOCC1	.	-27	-4%	.	-11	-1.0%	-11%[15.4 µM]
58	CCNc1oc(/C=C/c2ccc(OCC)cc2)nc1C#N	10%	-1	2%	-1.1	-7	4.2%	11%
59	[O-][n+]1c(/C=C/c2ccccc2)ccc2ccccc21	-2%	-4	-17%	0.9	-5	-2.4%	-2%
60	O=C(COC(=O)c1ccc(S(=O)(=O)N2CCCCCC2)cc1)NCc1ccc(F)cc1	.	-10	6%	.	-2	1.6%	-1%
61	CC(C)(C)OC(=O)CNC(=O)c1nc[nH]c1C(=O)N1CCN(c2ccccc2)CC1	4%	-4	13%	1.4	29	2.1%	10%
62	O=C(Cn1nc(C(F)F)cc1C1CC1)NCCC1=CCCCC1	-2%	-30	9%	1.8	0	-15%	?
